Assay outcomes deposited in PubChem by National Center for Advancing Translational Sciences (NCATS).
CtBP-E1A inh: CtBP/E1A binding inhibition; AlphaScreen GST-E1A/His-CtBP binding, 1536-well; active compounds read low; control for the full effect not named in the record; activity change, % (test concentration not listed); hit rate 0.49% among 340,000; AID 651724; in the data active means activity change below about -65%; inconclusive means about -30% to -65%; inactive means above about -30%; further: on the % scale 0 is the no-effect control and ±100 the full control effect
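GST-E1A and His-tagged CtBP (125 nM each as 5X stock) were preincubated with pin-transferred compound for 2 h at 37 °C in the dark, then glutathione donor and nickel acceptor beads were added for 1 h before AlphaScreen reading.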
gsp agonist: agonists of gsp mutant (McCune-Albright syndrome) | gsp mutant cells, cAMP HTRF, 30 min; control for the full effect not named in the record | hit rate 0.13% among 340,000 | Potency, µM (series often up to 76.9 µM), without a hit: at the highest dose activation (cAMP increase), actives largely listed as activators; active = well fitted activation curve with a large enough effect; inconclusive = small, poorly fitted or top-dose-only effect, or another doubt; inactive = no such curve, though single readings can be large or run the other way; cell line not stated here;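 further: phosphodiesterase inhibitor Ro 20-1724 added with compounds to block cAMP breakdown; potency means the concentration at half of the fitted maximal effect; nearly all actives have a fitted effect of over 60% in size; about a fifth of the inactives were tested at one dose only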
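Cells in DMEM/10% FBS with G418 were pretreated with compounds in DMSO plus […] (300 uM stock) for 30 min at 37C. cAMP was measured by HTRF (cAMP-d2 plus anti-cAMP antibody-K) after 30 min at room temperature.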
Six1-Eya2 blk: Six1/Eya2 interaction inhibition. AlphaScreen GST-Six1/His-Eya2 binding, biochemical; active compounds read low; control for the full effect not named in the record. activity change, % (no concentration beside the values). hit rate 0.56% among 360,000. AID 651725; in the data active = activity change below about -65%; inconclusive = about -30% to -65%; inactive = above about -30%; further: on the % scale 0 is the no-effect control and ±100 the full control effect
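GST-Six1 + His-Eya2 (5X stock: 250/500 nM); Tris pH 8.0, 300 mM NaCl, 0.05% BSA, 0.02% Tween 20; GSH donor/Ni acceptor beads; 1 h 37 °C dark; AlphaScreen readout.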
D2 ag: agonists of human D2 dopamine receptor (beta-arrestin); P14416; DiscoveRx PathHunter D2 beta-arrestin, luminescence, 90 min; 100% = 57 uM dopamine signal; activation, % (no concentration beside the values); hit rate 0.084% among 360,000; AID 624465; in the data active = activation above about 40%; inconclusive = about 15% to 40%; inactive = below about 15%; further: compound concentration not given in the record; the text of the record calls up to 30% inactive
Target sequence (P14416 whole entry, looked up): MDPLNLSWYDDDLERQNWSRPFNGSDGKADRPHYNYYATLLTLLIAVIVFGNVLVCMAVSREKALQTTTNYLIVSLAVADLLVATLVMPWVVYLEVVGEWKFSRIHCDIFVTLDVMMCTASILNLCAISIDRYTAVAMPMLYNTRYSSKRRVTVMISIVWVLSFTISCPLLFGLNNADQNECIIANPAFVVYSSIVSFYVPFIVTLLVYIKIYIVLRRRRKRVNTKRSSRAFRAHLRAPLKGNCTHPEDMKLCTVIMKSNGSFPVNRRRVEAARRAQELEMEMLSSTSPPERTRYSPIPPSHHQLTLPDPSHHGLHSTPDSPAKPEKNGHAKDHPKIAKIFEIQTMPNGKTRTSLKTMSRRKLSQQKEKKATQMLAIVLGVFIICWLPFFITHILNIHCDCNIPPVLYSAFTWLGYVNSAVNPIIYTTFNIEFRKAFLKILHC
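Agonist mode: compounds alone added to overnight-plated D2 PathHunter cells for 90 min at 37 C, with 57 uM final dopamine (EC100) defining full response. Beta-arrestin recruitment detected by chemiluminescent reagent, read after 1 h at ambient temperature.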
gsp antagonist: gsp mutant antagonism | gsp-mutant cells, cAMP HTRF, 30 min; control for the full effect not named in the record | Potency, µM (series often up to 76.9 µM), for the others: at the highest dose activity change, negative = inhibition, usual class: inhibitors | hit rate 0.4% among 340,000 | AID 624288; active = falling curve of any shape with a large fitted effect; inconclusive = falling curve, mostly with a smaller effect; inactive = flat or rising curve; cell line not stated here;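 further: intracellular cAMP measured with PDE inhibitor Ro 20-1724 present during compound exposure; potency means the concentration at half of the fitted maximal effect; on the % scale 0 is the no-effect control and ±100 the full control effect; nearly all actives have a fitted effect of over 65% in size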
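HTRF cAMP read-out (cAMP-d2 plus anti-cAMP antibody-K in lysis buffer, 30 min RT). Before lysis, cells are exposed to compounds with […] for 30 min at 37C in DPBS containing Ca/Mg, BSA and Tween 20.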
D2 PAM: potentiates the human D2 dopamine receptor allosterically. P14416. hit rate 0.23% among 360,000. DiscoveRx D2 beta-arrestin cells, luminescence, 90 min; 100% = 57 uM dopamine signal. AID 624464. potentiation, % (test concentration not listed); active = potentiation of 50% or more; inconclusive = 30% to 50%; inactive = 30% or less;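 further: compound concentration not given in the record; tested on top of an EC20 dose of dopamine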
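PathHunter beta-arrestin assay in DiscoveRx D2 cells. Compounds were added with an EC20 of dopamine (50 nM final) for 90 min at 37 deg C. Luminescence was read 1 h after detection reagent, with 57 uM dopamine as the EC100 control.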
* hit, by the source's call; u = inconclusive; x = not tested or not shown; [ ] = another dose, or the depositor's remark.

SMILES	CtBP-E1A inh	gsp agonist	Six1-Eya2 blk	D2 ag	gsp antagonist	D2 PAM
CCCC(=O)Nc1nnc(SCC)s1	0	-30%	7	-0.8	9%	-13
CCOC(=O)C1(CC/C(C)=N\NC(N)=O)CC(C)OC1=O (centres undefined)	-4	-5%[15.4 µM]	4	1.7	7%	16
COc1cc(OC)cc(C(=O)NCC(=O)OCC(=O)N2CCc3ccccc32)c1	x	-30%[inhibitor]	-2	-1.8	-9%	-15
CC(=O)Nc1ccc(SCC(=O)NC(=O)c2ccccc2Br)cc1	-18	9%	3	-1.3	5%	-20
CCOC(=O)C1=C(C)NC(=O)NC1c1ccc2c(c1)OCCO2 (centres undefined)	1	-1%	3	-3.3	14%	-7
C[C@H](CO)N1C[C@H](C)[C@@H](CN(C)C(=O)Nc2ccc(C(F)(F)F)cc2)Oc2ccc(NS(=O)(=O)c3cccs3)cc2C1=O	-26	6%	2	-1.8	-8%	-7
COc1cc(C(C)=O)ccc1OCc1cn(CC(=O)c2ccc(O)cc2)nn1	-3	x	-7	-12	-7%	-24
COCCNC(=O)c1cccc(OC2CCN(Cc3ccccc3OC(F)F)CC2)c1	5	-57%	-1	-0.6	-3%	-2
COc1ccccc1CCNC(=O)CSc1nnc2ccc(-c3ccncc3)nn12	-18	u	-5	8.1	-9%	-8
COc1cccc(C(=O)Nc2nnc(CCS(=O)(=O)c3ccc(C)cc3)s2)c1	0	-24%	25	-3.8	-30%	-5
Cc1ccccc1OC(C)C(=O)N1CCN(c2ccccn2)CC1 (centres undefined)	-1	24%	-6	-6.1	-19%	-28
COc1ccc(CN=CC2=C(O)CNC2=O)cc1OC	8	2%	10	0.5	1%	-10
O=C(OCc1ccccc1F)c1cnc(Cl)c(Cl)c1	46	21%	37	6.7	-7%	-4
CC1CCN(C(=O)CN2C(=O)C(=O)N(C(C)C)C2=O)c2ccccc2S1 (centres undefined)	0	1%	2	-1.6	9%	-3
CCN(CC)S(=O)(=O)c1ccc(NC2CCCc3ccccc32)nc1 (centres undefined)	2	8%	2	1.0	-8%	10
O=C(CSc1nnc(-c2ccc3c(c2)OCO3)o1)Nc1ncc(C(F)(F)F)cc1Cl	4	-25%	-3	-5.1	-5%	-4
O=C(CSc1nnc(-c2cccc(S(=O)(=O)N3CCCCC3)c2)o1)NCCC1=CCCCC1	-2	u	-4	1.4	8%	0
CCN1CCc2c(sc(NC(=O)c3ccc(S(=O)(=O)N(C)CC4CCCO4)cc3)c2C(N)=O)C1 (centres undefined)	-8	-12%[15.4 µM]	-12	-4.2	1%	-8
Cc1csc(NC(=O)c2ccc(S(C)(=O)=O)cc2)n1	-20	-8%[15.4 µM]	0	-2.2	12%	-1
O=C(CN1C(=O)c2cccc([N+](=O)[O-])c2C1=O)N1CCN(S(=O)(=O)c2ccccc2)CC1	0	21%	2	9.6	-30%	0
C/C(=N/NC(=O)c1ccco1)c1ccc(NC(=O)c2ccc(F)cc2)cc1	14	9%	-3	-0.2	u	-18
CCS(=O)(=O)c1ccc(O)c(NC(=O)Nc2ccccc2)c1	0	20%	0	-2.7	-26%	-12
Cc1cc2nc3c(nc2cc1C)C1(C(=O)N(C)C)CCC3(C)C1(C)C (centres undefined)	-3	u	0	-3.5	15%	-3
CCOC(=O)C(C)n1nc(C)c2sc3ccccc3c2c1=O (centres undefined)	3	-3%	4	-0.1	-27%	-9
CCCNC(=O)CSc1n[nH]c(=O)n1CCc1ccccc1	9	9%	9	11	0%	-2
Cc1ccc(N(CC(=O)Nc2cc(C)cc(C)c2)S(=O)(=O)c2c(C)noc2C)cc1	20	-8%	11	-2.3	-30%	-19
O=c1[nH]c2cc(Cl)c(Cl)cc2o1	12	-8%	0	-3.3	-14%	-10
Cn1c(=O)[nH]c(=O)c2c1nc1n2CCCN1Cc1ccccc1	5	-16%	0	0.1	-27%	-1
O=c1cc(CSc2nc(NCc3ccc(Cl)cc3)c3ccccc3n2)nc2ccc(Cl)cn12	1	14%[15.4 µM]	7	-0.5	-7%	-1
O=C1c2ccccc2C(Nc2ccc3c(c2)OCO3)N1Cc1ccc2c(c1)OCO2 (centres undefined)	-10	u	u	3.9	-23%	-3
Cc1cccc(C)c1N=Cc1c(C(F)(F)F)[nH][nH]c1=O	x	1%	5	-0.1	4%	2
CC(=O)Nc1ccc(S(=O)(=O)N(C)CC(=O)N(C)Cc2sccc2C)cc1	3	13%	1	-0.2	9%	-28
COc1ccc(NC(=O)CC2SC(N3CCOCC3)=NC2=O)c(OC)c1 (centres undefined)	2	17%	-9	2.1	3%	-5
CCN1CCN(CCNC(=O)c2ccc3c(c2)NC(=O)/C(=C\c2ccc(OC)c(OC)c2)S3)CC1	x	4%	-26	-0.4	-15%	1
O=C(Cn1c(=S)[nH]c2ccccc2c1=O)N1CCc2ccccc2C1	-14	-11%[15.4 µM]	8	-3.9	-2%	-5
CCOC(=O)n1c(=O)n(Cc2ccc(Cl)cc2Cl)c2ccccc21	4	-1%	8	-1.3	-1%	-7
COCCN(C(=S)Nc1cc(C)ccc1C)C(C)c1cccnc1 (centres undefined)	5	7%	3	0.7	5%	-5
COc1ccc(C2Nc3ccccc3C(=O)N2c2ccccc2)cc1COc1ccccn1 (centres undefined)	1	3%	3	-1.5	8%	-3
Cc1ccnc(NC(=O)c2cc(S(=O)(=O)NCc3ccccc3)ccc2C)c1	-2	5%	3	11	-8%	-3
COc1ccccc1C(CNC(=O)c1ccc(C)c(S(=O)(=O)N2CCCCC2)c1)N1CCCC1 (centres undefined)	0	-1%[15.4 µM]	-4	-3.8	2%	-4

Single values from the list:
C[C@H](CO)N1C[C@H](C)[C@@H](CN(C)C(=O)Nc2ccc(C(F)(F)F)cc2)Oc2ccc(NS(=O)(=O)c3cccs3)cc2C1=O – Six1-Eya2 blk = 2
CCOC(=O)C1(CC/C(C)=N\NC(N)=O)CC(C)OC1=O (centres undefined) – gsp antagonist = 7%

Later entries:
SMILES	CtBP-E1A inh	gsp agonist	Six1-Eya2 blk	D2 ag	gsp antagonist	D2 PAM
CNC(=O)C[C@H]1C(=O)N(Cc2ccccc2)C[C@@H]1C	7	u	12	-5.7	x	2
Cc1cc(C(=O)N/N=C/c2ccc(N(C)C)o2)cs1	-6	5%	-7	6.7	-13%	-1
CCN(CC)CCN1C2=C(C(=O)CC(C)(C)C2)C(c2cccc(F)c2)C2=C1CC(C)(C)CC2=O	-10	-20%[15.4 µM]	17	-1.4	2%	-3
CC(=O)c1c(C)[nH]c(C(=O)Nc2ccc3c(c2)OCCO3)c1C	-11	-26%	-6	-0.9	-9%	-20
COc1ccc(CCNC(=O)C2CCN(C(=O)c3ccc(F)cc3)CC2)cc1OC	14	2%	-1	-1.2	-3%	-3
CN(CC(=O)NCc1ccco1)S(=O)(=O)c1ccc2c(c1)n(C)c(=O)c(=O)n2C	0	38%	-2	0.8	5%	-7
O=C(Nc1nnc(-c2ccco2)o1)c1ccc(Br)s1	2	-15%	-12	-3.9	x	-14
COc1cccc(C(=O)C2CCCN(Cc3cn(CC(N)=O)c4ccccc34)C2)c1 (centres undefined)	-1	u	111	-0.2	6%	-15
CC(c1ccccn1)N(CCN(C)C)C(=S)Nc1cccc(F)c1 (centres undefined)	u	-12%	u	-1.7	8%	-2
O=C(C1=C(O)C(=O)N(CCN2CCOCC2)C1c1cccc(Br)c1)c1cccs1 (centres undefined)	-23	u	0	-3.7	9%	-2
CCOC(=O)c1oc2ccccc2c1CN1CCOCC1	-2	-50%[inhibitor]	2	-3.1	-1%	-4
COc1ccccc1NC(=O)Cc1cccs1	4	-1%	-15	-4.4	1%	10
COc1ccc(C(=O)C2CCCN(S(=O)(=O)c3cccnc3)C2)c(C)c1 (centres undefined)	0	4%[15.4 µM]	-1	-2.8	x	-10
O=c1c(Cc2ccccc2)c(O)ccn1C1CCCCCCC1	x	-33%	21	-2.7	-22%	-12
O=C(NCc1ccc(Cl)cc1)c1cccc(NC2=NC3CS(=O)(=O)CC3S2)c1 (centres undefined)	2	-10%	-1	-1.6	7%	-3
CCCOC(=O)c1ccc(Nc2nc(C)cc(=O)[nH]2)cc1	-2	-26%	6	-1.9	1%	1
COc1ccc(-n2c(C)cc(C(=O)CN3C(=O)NC4(CCCc5sccc54)C3=O)c2C)cc1 (centres undefined)	x	-34%	-1	-4.5	-10%	-3
CS(=O)(=O)N1CCCCC1c1cc(C(=O)Nc2ccccc2Cl)no1 (centres undefined)	-5	x	13	-4.8	x	-2
CC(Oc1ccccc1)C(=O)N/N=C/c1ccccn1 (centres undefined)	-15	18%	-3	-6.0	-3%	-6
CC(=O)c1c(C)nc(-c2ccc(OCC(=O)Nc3ccc(F)cc3)cc2)n1O	-7	-49%[inhibitor]	2	2.3	-6%	-9
COCC1CCN(C(=O)C2CCC(=O)N(Cc3ccc(Cl)cc3)C2)CC1 (centres undefined)	4	-9%	2	-0.6	-5%	-8
COc1cc2nc(CN3CCN(C(C)=O)CC3)[nH]c(=O)c2cc1OC	-15	-3%[15.4 µM]	8	-2.8	x	-37
O=C(COc1ccc(F)cc1)N(Cc1cccc(Br)c1)C1CCS(=O)(=O)C1 (centres undefined)	11	17%	5	-0.5	-3%	-2
CCC1CCC2(CC1)NNC(=S)NN2	-15	-22%	5	-2.1	4%	13
CN(CC(=O)NCc1ccc2c(c1)OCO2)CC(=O)Nc1ccc(F)c(F)c1F	0	2%	-1	6.7	11%	-4

Molecules listed so far with a thiophene ring, fused or not:
SMILES	CtBP-E1A inh	gsp agonist	Six1-Eya2 blk	D2 ag	gsp antagonist	D2 PAM
C[C@H](CO)N1C[C@H](C)[C@@H](CN(C)C(=O)Nc2ccc(C(F)(F)F)cc2)Oc2ccc(NS(=O)(=O)c3cccs3)cc2C1=O	-26	6%	2	-1.8	-8%	-7
CCN1CCc2c(sc(NC(=O)c3ccc(S(=O)(=O)N(C)CC4CCCO4)cc3)c2C(N)=O)C1 (centres undefined)	-8	-12%[15.4 µM]	-12	-4.2	1%	-8
CCOC(=O)C(C)n1nc(C)c2sc3ccccc3c2c1=O (centres undefined)	3	-3%	4	-0.1	-27%	-9
CC(=O)Nc1ccc(S(=O)(=O)N(C)CC(=O)N(C)Cc2sccc2C)cc1	3	13%	1	-0.2	9%	-28
Cc1cc(C(=O)N/N=C/c2ccc(N(C)C)o2)cs1	-6	5%	-7	6.7	-13%	-1
O=C(Nc1nnc(-c2ccco2)o1)c1ccc(Br)s1	2	-15%	-12	-3.9	x	-14
O=C(C1=C(O)C(=O)N(CCN2CCOCC2)C1c1cccc(Br)c1)c1cccs1 (centres undefined)	-23	u	0	-3.7	9%	-2
COc1ccccc1NC(=O)Cc1cccs1	4	-1%	-15	-4.4	1%	10
COc1ccc(-n2c(C)cc(C(=O)CN3C(=O)NC4(CCCc5sccc54)C3=O)c2C)cc1 (centres undefined)	x	-34%	-1	-4.5	-10%	-3
